High-throughput results deposited in PubChem by Broad Institute.
HIV Env fusion – HIV envelope-mediated fusion inhibition | actives 1.1% (n = 360,000) | HeLa-JRFL Env/CEM21 cell fusion, luciferase | inhibition, % at 12.3 µM | AID 651610;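 active means mean replicate inhibition score of at least 50 and every replicate individually at or above 50; inconclusive means only one of the two criteria met; inactive means mean below 50 and not all replicates reaching 50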;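 further: 0% = plate neutral controls and 100% = maraviroc near 300 nM; one replicate is shown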
* hit, by the source's call; ? = inconclusive; [ ] = remark or other dose.

SMILES | HIV Env fusion
COc1ccc(CN(C)C[C@@H]2Oc3ccc(NC(=O)NC(C)C)cc3C(=O)N([C@@H](C)CO)C[C@@H]2C)cc1 | -4[16.7 µM]
COC(=O)C1(N2C(=O)O[C@@H](Cc3ccccc3)[C@H]2/C=C/C2CC2)CCCC1 | 10[16.7 µM]
CCCCCCC(=O)NC1CCCCN(C)C1=O (stereo not given) | -8
CC(C)NC(=O)Nc1ccc2c(c1)C(=O)N([C@H](C)CO)C[C@H](C)[C@H](CN(C)C(=O)NC1CCCCC1)OCCCC[C@H](C)O2 | -25[16.7 µM]
C[C@H](CO)N1C[C@H](C)[C@H](CN(C)Cc2ccncc2)OCCCC[C@H](C)Oc2ccc(NC(=O)c3ccncc3)cc2C1=O | -16[16.7 µM]
CC=Cc1ccc2n(c1=O)C[C@@H]1[C@@H](CO)[C@H](C(=O)NCC)N(Cc3ccccc3Cl)[C@H]21 (mixture of isomers) | 0[16.7 µM]
Cc1noc(C)c1NC(=O)NCC[C@H]1CC[C@H](NC(=O)c2ccc(F)cc2)[C@H](CO)O1 | 1[16.7 µM]
CC(C)NC(=O)N(C)C[C@@H]1OCCCC[C@@H](C)Oc2ccc(NC(=O)c3ccccc3)cc2C(=O)N([C@H](C)CO)C[C@@H]1C | 0[16.7 µM]
COC(=O)c1ccc2c(=O)n(CCCCCC(=O)NC3CCCCC3)c(=O)[nH]c2c1 | -10
COCc1[nH]nc2c1C(c1ccc(F)cc1)N(c1ccccc1)C2=O (stereo not given) | -12
Cc1noc(C)c1S(=O)(=O)N(C)C[C@H]1Oc2c(NC(=O)C3CCOCC3)cccc2C(=O)N([C@H](C)CO)C[C@H]1C | -6[16.7 µM]
COc1cccc(CNC(=O)C[C@@H]2C=C[C@H](NC(=O)C3CCC3)[C@H](CO)O2)c1 | 65*[16.7 µM]
CN(C)c1ccc2c(c1)[C@H]1C[C@H](CC(=O)NCc3ccc4c(c3)OCO4)O[C@@H](CO)[C@H]1O2 | 4[16.7 µM]
COc1ccc2c3c(n(C)c2c1)[C@H](CO)N(C(=O)C1CCOCC1)CC31CCN(C(=O)Nc2cccc(F)c2)CC1 | 3[16.7 µM]
Cc1ccc(S(=O)(=O)N[C@@H]2CC[C@H](CCn3cc(-c4cccnc4)nn3)O[C@@H]2CO)cc1 | -18[16.7 µM]
CCS(=O)(=O)Nc1ccc2c(c1)C(=O)N(C)[C@@H]1CC[C@H](CC(=O)NCc3ccccc3F)O[C@H]1CO2 | 3[16.7 µM]
COCC(=O)Nc1ccc2c(c1)OC[C@H](C)N(C(=O)C1CCCC1)C[C@@H](C)[C@@H](OC)CN(C)C2=O | -18[16.7 µM]
Cc1ccc(CNC(=O)[C@@H](Cc2ccccc2)NC(=O)[C@H]2O[C@@H](n3ccc(N)nc3=O)[C@H](O)[C@@H]2O)o1 | -2
COc1ccc2nc3n(c(=O)c2c1)-c1ccc(Cl)cc1C(=O)NC3Cc1ccccc1 (stereo not given) | -16
COC(=O)C1=C(C)N(Cc2cccc(C(F)(F)F)c2)C(=NCc2cccc(C(F)(F)F)c2)NC1c1ccc(Cl)cc1 (stereo not given) | ?
O=C(C[C@H]1CC[C@H]2NC[C@H](O)COC[C@@H]2O1)N1CCc2ccccc2C1 | -10[16.7 µM]
C[C@H](CO)N1C[C@H](C)[C@@H](CN(C)S(C)(=O)=O)OCCCC[C@H](C)Oc2ccc(NC(=O)c3ccccc3)cc2C1=O | 16[16.7 µM]
C[C@H](CO)N1C[C@H](C)[C@H](CN(C)C(=O)Nc2ccc(C(F)(F)F)cc2)Oc2ccc(NS(=O)(=O)c3ccccc3)cc2CC1=O | 9[16.7 µM]
CC(C)C[C@@H]1COCc2cn(nn2)CC[C@@H](Cc2ccccc2)C(=O)N1 | 11[16.7 µM]
COCC(=O)Nc1ccc2c(c1)OC[C@@H](C)N(CC1CC1)C[C@H](C)[C@H](OC)CN(C)C2=O | -47[16.7 µM]

Eleven consecutive entries out of the list so far, for reference:
SMILES | HIV Env fusion
COc1ccc(CN(C)C[C@@H]2Oc3ccc(NC(=O)NC(C)C)cc3C(=O)N([C@@H](C)CO)C[C@@H]2C)cc1 | -4[16.7 µM]
COC(=O)C1(N2C(=O)O[C@@H](Cc3ccccc3)[C@H]2/C=C/C2CC2)CCCC1 | 10[16.7 µM]
CCCCCCC(=O)NC1CCCCN(C)C1=O (stereo not given) | -8
CC(C)NC(=O)Nc1ccc2c(c1)C(=O)N([C@H](C)CO)C[C@H](C)[C@H](CN(C)C(=O)NC1CCCCC1)OCCCC[C@H](C)O2 | -25[16.7 µM]
C[C@H](CO)N1C[C@H](C)[C@H](CN(C)Cc2ccncc2)OCCCC[C@H](C)Oc2ccc(NC(=O)c3ccncc3)cc2C1=O | -16[16.7 µM]
CC=Cc1ccc2n(c1=O)C[C@@H]1[C@@H](CO)[C@H](C(=O)NCC)N(Cc3ccccc3Cl)[C@H]21 (mixture of isomers) | 0[16.7 µM]
Cc1noc(C)c1NC(=O)NCC[C@H]1CC[C@H](NC(=O)c2ccc(F)cc2)[C@H](CO)O1 | 1[16.7 µM]
CC(C)NC(=O)N(C)C[C@@H]1OCCCC[C@@H](C)Oc2ccc(NC(=O)c3ccccc3)cc2C(=O)N([C@H](C)CO)C[C@@H]1C | 0[16.7 µM]
COC(=O)c1ccc2c(=O)n(CCCCCC(=O)NC3CCCCC3)c(=O)[nH]c2c1 | -10
COCc1[nH]nc2c1C(c1ccc(F)cc1)N(c1ccccc1)C2=O (stereo not given) | -12
Cc1noc(C)c1S(=O)(=O)N(C)C[C@H]1Oc2c(NC(=O)C3CCOCC3)cccc2C(=O)N([C@H](C)CO)C[C@H]1C | -6[16.7 µM]

Next part.
SMILES | HIV Env fusion
Cc1nccn1-c1ccc(NC(=O)[C@@H](Cc2ccccc2)NC(=O)[C@H]2O[C@@H](n3ccc(=O)[nH]c3=O)[C@H](O)[C@@H]2O)cc1 | 6
O=C(O)C[C@@H]1CC[C@@H]2[C@H](COC[C@@H](O)CN2S(=O)(=O)c2ccc(Oc3ccccc3)cc2)O1 | 7[16.7 µM]
CO[C@@H]1CN(C)C(=O)c2cc(NC(=O)C3CCCCC3)ccc2OC[C@@H](C)N(C(=O)Nc2ccc(C(F)(F)F)cc2)C[C@H]1C | 17[16.7 µM]
O=C(C[C@H]1CC[C@@H]2[C@H](COC[C@H](O)CN2CCC(F)(F)F)O1)NCc1ccc(Oc2ccccc2)cc1 | -21[16.7 µM]
C[C@H](CO)N1C[C@H](C)[C@H](CN(C)C(=O)CCC(F)(F)F)OCCCC[C@H](C)Oc2ccc(NS(=O)(=O)c3ccc(Cl)cc3)cc2C1=O | -6[16.7 µM]
COc1cccc(CNC(=O)C[C@H]2CC[C@H]3[C@@H](COc4ccc(NC(=O)c5cccs5)cc4C(=O)N3C)O2)c1 | -17[16.7 µM]
CC12CCC(C(=O)CC1=O)C2(C)C (stereo not given) | -22
CC(C)(C)c1ccc(C#C[C@@H]2C=C[C@@H](O)[C@@H](COC(=O)Nc3ccccc3)O2)cc1 | -6
COc1ccc(N)cc1CN1CCN(c2ncc(Cc3ccccc3)cn2)CC1 | 16
COCC(=O)Nc1ccc2c(c1)OC[C@H](C)N(C(=O)C1CCCC1)C[C@H](C)[C@H](OC)CN(C)C2=O | 5[16.7 µM]
Cc1nnc(SCC(=O)NCC2CCCO2)n1Cc1ccccc1 (stereo not given) | -2
C[C@@H]1CN([C@@H](C)CO)C(=O)c2cc(C3=CCCC3)cnc2O[C@H]1CN(C)C(=O)c1ccc2c(c1)OCO2 | 8[16.7 µM]
COc1cccc(CN(C)C[C@@H]2OCc3cnnn3CCCC(=O)N([C@@H](C)CO)C[C@@H]2C)c1 | -12[16.7 µM]
O=C(NCCc1ccncc1)[C@H]1N[C@H]2c3ccc(/C=C/c4ccccc4)c(=O)n3C[C@H]2[C@@H]1CO | 10[16.7 µM]
COc1cccc(CN(C)C[C@H]2OCc3cnnn3CCCC(=O)N([C@@H](C)CO)C[C@H]2C)c1 | -9[16.7 µM]
C[C@@H]1CN([C@@H](C)CO)C(=O)CCCn2cc(nn2)CO[C@@H]1CN(C)S(=O)(=O)c1ccc(Cl)cc1 | 17[16.7 µM]
CN1C(=O)c2cc(NS(C)(=O)=O)ccc2OC[C@H]2O[C@H](CC(=O)NCc3ccc(-c4ccccc4)cc3)CC[C@H]21 | 16[16.7 µM]
CO[C@H]1CN(C)C(=O)c2ccc(NC(=O)c3cnccn3)cc2OC[C@@H](C)N(C)C[C@H]1C | -6[16.7 µM]
CN1C(=O)c2cc(NC(=O)Cc3cccs3)ccc2OC[C@H]2O[C@@H](CC(=O)N[C@H]3CCN(Cc4ccccc4)C3)CC[C@H]21 | 1[16.7 µM]
O=C(CCN1CCCCC1)NCC[C@@H]1CC[C@H](NS(=O)(=O)c2cccc(Cl)c2)[C@H](CO)O1 | 3[16.7 µM]
CN(C(=O)c1cccc(NC(=O)Cc2ccc(NC(=O)C3CCN(C(=O)CCc4ccccc4)CC3)cc2)c1)C1CCCC1 | 15
COc1ccccc1CN1C[C@@H](C)[C@@H](OC)CN(C)C(=O)c2cc(NC(C)=O)ccc2OC[C@@H]1C | -1[16.7 µM]
COc1ccc(CN(C)C[C@@H]2Oc3ccc(NC(=O)NC4CCCCC4)cc3CC(=O)N([C@@H](C)CO)C[C@H]2C)cc1 | -8[16.7 µM]
COC(=O)[C@]12C[C@H](CC(=O)NCc3ccc(C)o3)C(=O)N(Cc3ccc4c(c3)OCO4)C1=C[C@H](COCc1ccccc1)O[C@@H]2C | -43
CO[C@@H]1CN(C)C(=O)c2cc(NC(=O)Cc3ccccc3)ccc2OC[C@@H](C)N(C(C)=O)C[C@H]1C | -5[16.7 µM]
(continued)
SMILES | HIV Env fusion
O=C(Nc1ccc2c(c1)[C@H]1C[C@H](CC(=O)N3CCCCC3)O[C@@H](CO)[C@H]1O2)C1CCOCC1 | 0[16.7 µM]
O=C(O)[C@H]1[C@H](CO)[C@H]2Cn3c(ccc(-c4cccc(F)c4)c3=O)[C@H]2N1C(=O)c1ccccn1 | 11[16.7 µM]
CO[C@H]1CN(C)C(=O)c2cc(NC(=O)c3ccc(Oc4ccccc4)cc3)ccc2OC[C@H](C)NC[C@H]1C | -3[16.7 µM]
Cc1ccccc1S(=O)(=O)N(C)C[C@@H]1OCc2ccccc2-c2ccccc2C(=O)N([C@H](C)CO)C[C@H]1C | -12[16.7 µM]
O=C(N[C@H]1C=C[C@H](CC(=O)N2CCc3ccccc3C2)O[C@H]1CO)C1CC1 | 21[16.7 µM]
CC(C)(C)n1nc(C2CC2)cc1NC(=O)Nc1ccccc1 | 8
CC(C)NC(=O)Nc1ccc2c(c1)C(=O)N([C@@H](C)CO)C[C@@H](C)[C@@H](CN(C)C(=O)NC1CCCCC1)O2 | -9[16.7 µM]
CCCCc1nnn2c1C1c3cc(Br)ccc3CCN1C(=O)C2 (stereo not given) | 22
CNC[C@H]1Oc2ccc(NS(=O)(=O)c3ccc(OC)cc3)cc2CC(=O)N([C@H](C)CO)C[C@H]1C | -12[16.7 µM]
Brc1ccc(N2O[C@H]3C=C[C@@H]2C3)nc1 | 8
O=C(C1CCC1)N1CC2(C1)[C@H](c1ccccc1)[C@@H](CO)N2Cc1cncnc1 | -31[16.7 µM]
Cc1ccc(S(=O)(=O)N(C)[C@H]2C[C@H]3c4cc(-c5ccc6c(c5)OCO6)ccc4CCN3C[C@H]2[C@H](C)O)cc1 | -13
O=C1N(Cc2ccccc2)Cc2ccccc2[C@@H]2OC(c3ccc(OCCCO)cc3)=N[C@]12Cc1ccccc1 | 9[16.7 µM]
CO[C@H]1CN(C)C(=O)c2cc(NC(=O)Nc3cccc(F)c3)ccc2OC[C@H](C)N(C(=O)C2CC2)C[C@@H]1C | 8[16.7 µM]
COc1ccc(C(=O)N(C)[C@H]2C[C@H]3c4[nH]c5c(-c6ccccc6)cccc5c4CCN3C(=O)[C@H]2[C@H](C)O)cc1 | -34
C[C@@H]1CN([C@H](C)CO)C(=O)c2cc(C3=CCCC3)cnc2O[C@@H]1CN(C)C(=O)c1ccccn1 | 7[16.7 µM]
CO[C@H]1CN(C)C(=O)c2cc(NC(C)=O)ccc2OC[C@H](C)NC[C@H]1C | 11[16.7 µM]
COc1ccc(NC(=O)N(C)C[C@H]2Oc3ccc(NS(=O)(=O)c4ccccc4)cc3CC(=O)N([C@H](C)CO)C[C@@H]2C)cc1 | 17[16.7 µM]
CO[C@@H]1CN(C)C(=O)c2ccc(NS(=O)(=O)c3ccccc3F)cc2OC[C@@H](C)NC[C@H]1C | -7[16.7 µM]
CN(C)CCCNC(=O)[C@@H]1[C@@H](CO)[C@@H]2Cn3c(cccc3=O)[C@H]1N2CC1CC1 | -9[16.7 µM]
C[C@H](CO)N1C[C@H](C)[C@H](CN(C)C(=O)Nc2ccc3c(c2)OCO3)Oc2ccc(NS(=O)(=O)c3ccccc3)cc2CC1=O | 12[16.7 µM]
CCN1C(=O)N(C(C)=O)[C@H]2C[C@H](C(=O)N3CCCC3)[C@H](C)[C@H](c3ccccc3)C[C@H]21 | -18
CN1CCN(C(=O)C[C@H]2CC[C@H]3[C@@H](COc4ccc(NC(=O)C5CCOCC5)cc4C(=O)N3C)O2)CC1 | 10[16.7 µM]
CCCNC(=O)Nc1ccc2c(c1)C(=O)N(C)C[C@H](OC)[C@H](C)CN[C@@H](C)CO2 | 3[16.7 µM]
Cc1cccc(S(=O)(=O)N2CCC[C@H]2C(=O)N2CCC[C@@H]2C(=O)NCc2ccccc2)c1 | 0
Continued.
SMILES | HIV Env fusion
C[C@H]1CN([C@@H](C)CO)C(=O)c2ccccc2-c2ccccc2CO[C@H]1CN(C)S(=O)(=O)c1cccc(C#N)c1 | 57*[16.7 µM]
CO[C@H](C(=O)N(C)C[C@@H]1OCc2ccccc2-c2c(n(C)c3ccccc23)C(=O)N([C@H](C)CO)C[C@H]1C)c1ccccc1 | -5[16.7 µM]
COCC(=O)Nc1ccc2c(c1)OC[C@@H](C)N(C(=O)CC1CC1)C[C@@H](C)[C@@H](OC)CN(C)C2=O | -4[16.7 µM]
CC(C)(C)OC(=O)NCCOCCOCCNc1ncnc2ccc(Br)cc12 | 22[16.7 µM]
CC1CCN(C(=O)c2ncn3c2C(=O)N[C@@H](C)C3)CC1 | 131*
COC(=O)C[C@@H]1CC[C@H]2[C@H](COc3ccc(NC(=O)c4cccc(Cl)c4)cc3C(=O)N2C)O1 | 17[16.7 µM]

An excerpt. The share of hits here may be higher or lower than overall.
